# Screens from PubChem.
# GIRK2 activ – activators of human GIRK2 potassium channels. HEK293-GIRK2 thallium flux, Thallos fluorescence. calls only for hits at 25 µM. hit rate 0.05% among 63,000;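 active = among the strongest 0.2% of first-round signals and kept after retests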;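 note: first round at about 10 µM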
# Target sequence (P48051 whole entry, looked up): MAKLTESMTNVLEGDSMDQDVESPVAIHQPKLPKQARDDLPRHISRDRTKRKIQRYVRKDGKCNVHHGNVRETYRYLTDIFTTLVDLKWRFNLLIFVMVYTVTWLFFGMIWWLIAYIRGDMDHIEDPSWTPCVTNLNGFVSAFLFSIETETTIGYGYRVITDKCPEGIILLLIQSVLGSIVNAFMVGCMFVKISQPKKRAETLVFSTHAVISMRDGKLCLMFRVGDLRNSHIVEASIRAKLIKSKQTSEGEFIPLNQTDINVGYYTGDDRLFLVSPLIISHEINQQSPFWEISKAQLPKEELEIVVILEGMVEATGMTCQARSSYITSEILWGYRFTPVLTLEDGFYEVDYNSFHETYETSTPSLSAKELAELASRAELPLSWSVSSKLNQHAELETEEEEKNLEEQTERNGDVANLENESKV
# Calls only; i = inactive; + = active, no number. A portion of the library (hit frequency here may not be typical).
GIRK2 activ | structure
i | O=C(COc1ccccc1)N1CCC(CNC(=O)C2(c3ccc(Cl)cc3)CCCC2)CC1
i | CCn1c(SCC(=O)Nc2ccc3c(c2)OCO3)nc2c(-c3ccccc3)c[nH]c2c1=O
i | Cc1nc(-c2ccco2)sc1CNS(=O)(=O)c1ccccc1Cl
i | O=c1c2cc(-c3cccs3)nn2cnn1Cc1nc(-c2ccccc2Cl)no1
i | COc1ccc(N2CCN(c3nc4c(c(=O)[nH]c(=O)n4C)n3CCCc3ccccc3)CC2)cc1
i | CCOc1cc(NC(=O)C(C)Oc2ccc(C)cc2OC)ncn1 (configuration not stated)
i | Cc1cnc(NC(=O)Cc2c(C)noc2C)s1
i | Cc1cc(F)ccc1NC(=O)c1c(O)c2sccc2n(C)c1=O
i | COc1ccc(NC(=O)Cn2ccn(-c3cccc(OC)c3)c(=O)c2=O)cc1
i | COc1cccc(CNC(=O)c2cn(-c3cc(N4CCCCC4)ncn3)cn2)c1

# Additional records:
GIRK2 activ | structure
i | Cc1cc(N2C(=O)c3oc4cc(C)c(C)cc4c(=O)c3C2c2ccc([N+](=O)[O-])cc2)no1 (configuration not stated)
i | O=C(Cc1nnc(-c2cccc(Br)c2)o1)NCCc1ccc(Cl)cc1
i | O=C(NCCC1=CCCCC1)C(=O)NCC(O)(c1ccccc1)C1CC1 (configuration not stated)
i | CC(=O)Nc1c(-c2ccccn2)nsc1C(=O)N1CCN(c2ccccc2C)CC1
i | O=C(NCC(O)Cc1ccccc1)c1cc(C2CC2)on1 (configuration not stated)
i | Cc1c(C)n2c3c(=O)n(Cc4c(F)cccc4Cl)c(=O)n(C)c3nc2n1CCN(C)C
i | O=C(c1ccc(OC(F)(F)F)cc1)N1CCC2(CC1)OCCCO2
i | NCCN1CCOC(c2ccccc2)C1 (configuration not stated)
i | COc1ccccc1N1CCN(CC(=O)Nc2ccccc2C)C1=O
i | Cc1sc2ccc(Cl)cc2[n+]1CCCS(=O)(=O)[O-]

# Continuation.
GIRK2 activ | structure
i | COC(=O)Cn1c(=O)c2c(nc3n(-c4ccccc4)c(-c4ccccc4)cn23)n(C)c1=O
i | CCn1cc(C(=O)OCC(=O)Nc2cccc(C(C)=O)c2)c(=O)c2ccc(C)nc21
i | COc1cc2ncc(-c3ccccc3)nc2cc1OC
i | CCOC(=O)c1c(NCc2cccc(OC)c2)c2cccc(Cl)c2[nH]c1=O
i | NC(=O)c1ccsc1NC(=O)C1CCN(S(=O)(=O)c2ccc(F)cc2)CC1
i | Cn1nc(C2CCN(C(=O)C3COc4ccccc4O3)CC2)n(-c2ccccc2)c1=O (configuration not stated)
i | Cc1noc(CNC(=O)c2cc(-c3ccc(F)cc3)nn2C)n1
i | COc1ccc(-n2nnc(C(=O)Nc3cc(C(C)(C)C)no3)n2)cc1
i | Cc1nn(-c2ccccc2)c(C)c1/C=C1\Oc2cc(O)ccc2C1=O
i | Cc1cc(C(O)CCNC(=O)C(=O)NC2CC2)c(C)o1 (configuration not stated)

# Next entries follow.
GIRK2 activ | structure
i | N#Cc1nc(-c2ccc(S(=O)(=O)N3CCOCC3)cc2)oc1NCCCN1CCOCC1
i | Cn1c(C2CCC(CNC(=O)COc3ccc(F)cc3)CC2)nc2ccccc21 (configuration not stated)
i | O=C(NCCn1nc(-c2ccco2)ccc1=O)c1csc(-n2cccc2)n1
i | CCn1c(=O)c2c(nc3n(CCCl)c(C)cn23)n(C)c1=O
i | N#C/C(C(=O)NCCc1ccccc1)=C1/N=C(NC(=O)c2cccs2)c2ccccc21
i | Cn1cc(-c2cccs2)nc1CCNC(=O)C1c2ccccc2Oc2ccccc21
i | COc1ccc(NC(=O)CSc2nccc(N3CCN(c4ccccc4OC)CC3)n2)cc1OC
i | CSCCC(C)(O)CNC(=O)C(=O)NCC(F)(F)F (configuration not stated)
i | COc1ccc(-c2[nH]nc(N)c2C)cc1
i | COc1cccc(/C=C/c2nc(C#N)c(N3CCN(C(=O)c4cccs4)CC3)o2)c1

# Remaining list, next part.
GIRK2 activ | structure
i | O=C(/C=C/c1cccs1)N1CCC(Oc2ccc(C(F)(F)F)cn2)CC1
i | O=C(NCCCS(=O)(=O)N1CCN(c2ncccn2)CC1)C1CC1
i | COc1cccc(NC(=O)NC2CCCC(OC(=O)Nc3ccccc3)C2)c1OC (configuration not stated)
i | Cc1ncn(CC(=O)N2CCC(S(=O)(=O)c3ccccc3)CC2)c(=O)c1C
i | CCCC1(C(O)C/C=C/[C@H]2C(O)CC(=O)C2CCCCCCC(=O)O)CCC1 (some centres not stated)
i | Cn1cc(CC(=O)Nc2ccc3c(c2)CCCN3C(=O)c2ccccc2)c2ccccc21
i | O=C(C1COc2ccccc2O1)N1CCN(CC(O)c2ccco2)CC1 (configuration not stated)
i | COc1ccc(C(=O)Nc2ccc3c(=O)c4cccc(Cl)c4oc3c2)cc1
i | COc1ccc2cc(CCNC(=O)c3ccc(S(=O)(=O)N4CCCC4)cc3)c(=O)[nH]c2c1
i | CCOC(=O)N1CCC(Nc2ncc3c(=O)n(Cc4ccccc4F)c(=O)[nH]c3n2)CC1

# The listing continues:
GIRK2 activ | structure
i | COc1ccc(C(=O)N(CCN2CCOCC2)c2nc3c(SC)cccc3s2)cc1
i | Cc1noc(-c2ccc(N3CCC(NC(=O)c4ccc(Br)o4)C3)nc2)n1 (configuration not stated)
i | CCOC(=O)c1c(-c2ccc(C)c(C)c2)csc1NC(=O)C(C)(C)C
i | CC1CCc2c(sc3ncnc(SCC(=O)N4CCCCCC4)c23)C1 (configuration not stated)
i | C[C@H]1CC[C@@H]2N(C1)C[C@@H]1[C@H]([C@@H](O)[C@H](O)[C@]3(O)[C@H]1C[C@@]14O[C@@]5(O)[C@@H](C[C@@H](O)[C@@H]31)[C@]4(C)CC[C@@H]5O)[C@]2(C)O
i | Cc1ccc(NC(=O)CN2CCC(C(=O)NCCOc3ccc(F)cc3)CC2)c(C)c1
i | O=C(Nc1c(C(=O)c2ccc3c(c2)OCCO3)oc2ccccc12)c1ccc([N+](=O)[O-])cc1
+ | O=C(Cn1ccc2ccccc21)NC1CCN(Cc2ccccc2)CC1
i | CCOc1ccccc1-c1nc(CN(c2ccc(OC)cc2)S(=O)(=O)c2ccccc2)c(C)o1
i | Cc1cccc(-c2noc(C3CCCN(S(=O)(=O)c4cccs4)C3)n2)c1 (configuration not stated)

# More compounds follow.
GIRK2 activ | structure
i | O=S(=O)(NCCOc1ccc(F)cc1)c1ccc(Cl)cc1
i | Cn1nnnc1SCC(=O)N1CCN(S(=O)(=O)C2CC2)CC1
i | O=C(Cn1c(=O)oc2ccccc21)N1CC(Oc2nc3c(F)cccc3s2)C1
i | COc1cccc(CNC(=O)Cn2c3ccccc3c3ncn(Cc4nc(C)no4)c(=O)c32)c1
i | Cc1ccc(C)c(CC(=O)Nc2cc(C)nn2-c2nc3c(F)cccc3s2)c1
i | CCOc1ccc(C2c3c(oc4cc(C)c(C)cc4c3=O)C(=O)N2CCN(CC)CC)cc1 (configuration not stated)
i | O=C(c1ccco1)N(CCN1CCOCC1)c1nc2ccc(Cl)cc2s1
i | O=[N+]([O-])c1ccc(CSc2nnc(-c3cccc(S(=O)(=O)N4CCOCC4)c3)o2)cc1
i | COc1ccc(-c2cn3c(C(=O)NCc4ccccc4)csc3n2)cc1
i | CS(=O)(=O)c1ccc2nc(N(Cc3ccco3)C(=O)/C=C/c3ccccc3)sc2c1

# (list continues)
GIRK2 activ | structure
i | O=C(Nc1nc2c(s1)CN(S(=O)(=O)c1ccc(F)c(Cl)c1)CC2)C1CCCO1 (configuration not stated)
i | CCn1c(SCC(=O)Nc2cccc(C)c2C)nc2c(-c3ccccc3)csc2c1=O
i | O=C(Nc1ccc(CN2CCN(c3ccccn3)CC2)cc1)Nc1ccc2c(c1)OCO2
i | CSc1ccc(-c2noc(Cn3cnc4c(cnn4-c4ccc(C)c(Cl)c4)c3=O)n2)cc1
i | CSc1ccccc1C(=O)N1CCN(c2ncnc3c2nnn3-c2ccccc2)CC1
i | CSc1ccc(-c2noc(CCn3nc(-c4ccc(F)cc4)ccc3=O)n2)cc1
i | CC(=O)N1CCc2c(sc(NC(=O)/C=C/c3ccccc3)c2-c2nc3ccccc3s2)C1
i | Cc1oc(-c2cccc(C(F)(F)F)c2)cc1C(=O)NC(C)C
i | CCCCC[C@H](O)/C=C/[C@@H]1c2cc(CCCC(=O)O)n(-c3ccccc3)c2C[C@H]1O
i | CC(C)(C)CC(C)(C)c1ccc(OCC(O)C[N+](C)(C)C)cc1 (configuration not stated)

# Following part
GIRK2 activ | structure
i | CCn1cc(C(=O)O)c(=O)c2cccc(F)c21
i | CCS(=O)(=O)Nc1ccc2c(c1)CCCN2S(=O)(=O)c1ccc(OC)cc1
i | CC(C)S(=O)(=O)c1ccc(C(=O)N(Cc2ccncc2)c2nc3c(F)cc(F)cc3s2)cc1
i | CC1CCc2cc(F)ccc2N1C(=O)C12CCC(C)(C(=O)C1)C2(C)C (configuration not stated)
i | Cc1cc(O)cc(C)c1/C=C/c1cncc(-c2nn[nH]n2)c1
i | Cc1c(-c2ccc(Cl)cc2)c(=O)oc2cc(OCCN3CCN(CCO)CC3)ccc12
i | Cc1ccc(N)c(-c2nc3ccccc3[nH]c2=O)c1
i | Cc1ccc(/C=C/S(=O)(=O)NCCn2nc(C(F)(F)F)n(C)c2=O)cc1
i | Cc1cccc(-n2nnc(C(=O)NCCc3ccc(Cl)cc3)c2-c2cccnc2)c1
i | Cc1cc(C)c(S(=O)(=O)NC(CCC(=O)O)C(=O)O)cc1N(C)S(C)(=O)=O (configuration not stated)

# Carrying on:
GIRK2 activ | structure
i | CCOc1ccc(C(=O)Nc2cc(-c3cccs3)nn2-c2nc(C)cc(=O)[nH]2)cc1OCC
i | CC(=O)N1N=C(c2ccc(Br)cc2)CC1c1cn(-c2ccccc2)nc1C (configuration not stated)
i | CCOC(=O)CSc1nnc(CCc2c(C)[nH]c(=O)[nH]c2=O)o1
i | CS(=O)(=O)N1CCCc2ccc(NC(=O)C(=O)NCC3(c4cccs4)CCOCC3)cc21
i | O=C(NCC1(O)CCc2ccccc2C1)c1ccc(F)cc1Cl (configuration not stated)
i | Cc1c(Cl)cccc1S(=O)(=O)N1CCC(CSc2ccccn2)CC1
i | Cc1cc(N2C(=O)C(=O)C(=C(O)c3ccc(F)cc3)C2c2ccc(F)cc2)no1 (configuration not stated)
i | O=C(c1ccncc1)N1CCN(C(=O)C2CC2c2ccccc2)CC1 (configuration not stated)
i | COCC(=O)OC1CN(c2nc3ccc(F)cc3s2)C1
i | COc1cccc(S(=O)(=O)N2CCc3nc(NC(=O)c4ccsc4)sc3C2)c1

# Following part.
GIRK2 activ | structure
i | CCOc1ccc2nc(N(CCCn3ccnc3)C(=O)COc3ccccc3)sc2c1
i | Cc1ccc(=O)n(C(C)C(=O)N(C)C2CCCCC2)n1 (configuration not stated)
i | COc1ccccc1COc1cc(NC(=O)c2cnccn2)ncn1
i | CCOc1ccc(-n2c(C)cn3c4c(=O)[nH]c(=O)n(C)c4nc23)cc1
i | COc1ccc(CCC(=O)Nc2ccc3c(c2)CCC(=O)N3Cc2ccccc2)cc1
i | CC(C)(C)OC(=O)NC1CCN(C(=O)c2sc3ncccc3c2-n2cccc2)CC1
i | COc1ccc2c(c1)c(CC(=O)NCCOS(=O)(=O)c1ccc([N+](=O)[O-])cc1)c(C)n2C(=O)c1ccc(Cl)cc1
i | Cc1ccc(NC(=O)Cn2nc3ccc(-c4ccc(Cl)cc4)nn3c2=O)cc1F
i | Cc1ccc(O)cc1Nc1ccnc2ccc(S(C)(=O)=O)cc12
i | CCN1CCc2c(sc(NC(=O)c3ccc([N+](=O)[O-])cc3)c2-c2nc3ccccc3s2)C1

# (listing goes on)
GIRK2 activ | structure
i | COc1ccccc1/C=C/C=C1\Oc2cc(OCC(C)=O)ccc2C1=O
i | Cc1ccc(S(=O)(=O)c2cnc(SCC(=O)NCCc3ccccc3)[nH]c2=O)cc1Cl
i | Cc1ccc(-c2noc(-c3ccc(=O)n(CC(=O)NCC4CCCO4)c3)n2)cc1 (configuration not stated)
i | CCCS(=O)(=O)NCC(Cc1cccc(F)c1)N1CCNC1=O (configuration not stated)
i | COc1ccc(NC(=O)CSc2nccn(-c3ccc(C)cc3)c2=O)cc1OC
i | CCCCn1cc(S(=O)(=O)c2ccc(C)cc2)c(=O)c2cc(F)c(N3CCCC(C)C3)cc21 (configuration not stated)
i | O=C(Nc1ccc(-n2nnn(CC(=O)N3CCOCC3)c2=O)cc1)c1cccc(Cl)c1
i | CCN(CCCNC(=O)CCCn1c(=S)[nH]c2cc3c(cc2c1=O)OCO3)c1ccccc1
i | CCc1nnc(C2CCN(S(=O)(=O)c3cc(OC)ccc3OC)CC2)s1
i | Cc1ccc(N2CCCC(C(=O)NCCn3nc(-c4ccc(F)cc4)ccc3=O)C2)nn1 (configuration not stated)
i | Cc1cccc2sc(N3CCN(Cc4ccc5c(c4)OCO5)CC3)nc12
i | O=c1[nH]c(N2CCN(c3ccccc3)CC2)nc2c(-c3ccccc3Cl)csc12

# Structures from the list above with an NH in an aromatic ring:
GIRK2 activ | structure
i | CCn1c(SCC(=O)Nc2ccc3c(c2)OCO3)nc2c(-c3ccccc3)c[nH]c2c1=O
i | COc1ccc(N2CCN(c3nc4c(c(=O)[nH]c(=O)n4C)n3CCCc3ccccc3)CC2)cc1
i | CCOC(=O)c1c(NCc2cccc(OC)c2)c2cccc(Cl)c2[nH]c1=O
i | COc1ccc(-c2[nH]nc(N)c2C)cc1
i | COc1ccc2cc(CCNC(=O)c3ccc(S(=O)(=O)N4CCCC4)cc3)c(=O)[nH]c2c1
i | CCOC(=O)N1CCC(Nc2ncc3c(=O)n(Cc4ccccc4F)c(=O)[nH]c3n2)CC1
i | Cc1cc(O)cc(C)c1/C=C/c1cncc(-c2nn[nH]n2)c1
i | Cc1ccc(N)c(-c2nc3ccccc3[nH]c2=O)c1
i | CCOc1ccc(C(=O)Nc2cc(-c3cccs3)nn2-c2nc(C)cc(=O)[nH]2)cc1OCC
i | CCOC(=O)CSc1nnc(CCc2c(C)[nH]c(=O)[nH]c2=O)o1
i | CCOc1ccc(-n2c(C)cn3c4c(=O)[nH]c(=O)n(C)c4nc23)cc1
i | Cc1ccc(S(=O)(=O)c2cnc(SCC(=O)NCCc3ccccc3)[nH]c2=O)cc1Cl
i | CCN(CCCNC(=O)CCCn1c(=S)[nH]c2cc3c(cc2c1=O)OCO3)c1ccccc1
i | O=c1[nH]c(N2CCN(c3ccccc3)CC2)nc2c(-c3ccccc3Cl)csc12
